Source: PubChem BioAssay
Rce1 inh: yeast Ras-converting enzyme inhibition; yeast membranes, quenched prenylated peptide cleavage fluorescence; calls only; 290,000 tested, 0.27% active; AID 2563;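 active means fall in fluorescence gain of 50% or more versus controls, with final raw signal at or below 3038400; inconclusive means same 50% fall but final raw signal above 3038400; inactive means fall in fluorescence gain under 50%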;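 further: plate controls were neutral control wells for no effect and wells lacking membranes for full effect; tested at 10 µM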
MT1-MMP act inh: MT1-MMP (human) activation inhibition; GFP/RFP ratio change, % at 20 µM; HT1080 RFP-PRO-GFP cells, GFP/RFP ratio fluorescence, overnight; percent of plate control window, DMSO zero; AID 651647; 360,000 tested, 0.061% active;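 active means GFP/RFP ratio change of at least 30% with cell ATP level not reduced by more than half and red fluorescence within 50% of control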; further: strong numbers were not always called active
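Material: RFP-PRO-GFP reporter HT1080 cells. Dosing: single-point 20 µM compound, 1% DMSO. Controls: DMSO and RFP-L50D-GFP cell wells. Timing: cells overnight before dosing, compound overnight, 37 °C, 5% CO2. Measure: GFP/RFP fluorescence ratio.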
PABP FP inh: PABP-poly(A) binding inhibition; inhibition, % at 35 µM; AID 2014; P11940; 290,000 tested, 1% active; PABP-poly(A) RNA binding, fluorescence polarization;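 active means 50% or more with normal probe brightness, or confirmed in later tests; inconclusive means above 50% with abnormal brightness, or retests that disagree; inactive means below 50% or failed in later tests; about a fifth of its hits are not listed in these tables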;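 further: calls also rest on retests at 20 µM and on dose response follow-up; controls were probe without protein and protein plus probe with vehicle; some compounds called inactive have numbers as strong as hits; many hits fall short of the cut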
Target sequence (P11940 whole entry, looked up): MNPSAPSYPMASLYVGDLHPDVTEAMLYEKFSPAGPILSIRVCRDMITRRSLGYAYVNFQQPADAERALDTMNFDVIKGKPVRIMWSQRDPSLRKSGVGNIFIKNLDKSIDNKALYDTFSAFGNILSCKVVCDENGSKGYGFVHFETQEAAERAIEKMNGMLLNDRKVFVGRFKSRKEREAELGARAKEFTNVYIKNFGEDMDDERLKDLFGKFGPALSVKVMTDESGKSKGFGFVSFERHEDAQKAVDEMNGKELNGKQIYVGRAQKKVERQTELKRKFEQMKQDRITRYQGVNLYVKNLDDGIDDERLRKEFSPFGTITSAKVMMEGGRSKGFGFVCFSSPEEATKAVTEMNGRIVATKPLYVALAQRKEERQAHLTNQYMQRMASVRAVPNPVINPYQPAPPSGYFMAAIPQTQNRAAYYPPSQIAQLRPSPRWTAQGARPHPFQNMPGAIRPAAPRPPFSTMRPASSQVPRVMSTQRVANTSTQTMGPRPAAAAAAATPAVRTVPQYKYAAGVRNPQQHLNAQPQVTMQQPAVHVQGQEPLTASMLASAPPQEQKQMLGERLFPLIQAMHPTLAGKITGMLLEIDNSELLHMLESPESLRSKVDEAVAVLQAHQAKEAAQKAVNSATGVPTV
CSC inhib: blocks cancer stem cells | cancer stem cell-like cells viability, luminescence | inhibition, % at 7.5 µM | 300,000 tested, 1.1% active | AID 2717;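 active means mean at 75% or more and at least half the replicates too; inconclusive means mean and replicates disagree; tested in HMLE shEcad cells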;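 further: 0% = median of negative and 100% = median of positive control wells; the first replicate is given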
eIF4H inh: inhibitors of RNA binding by human eIF4H | 290,000 tested, 0.94% active | eIF4H fluorescence polarization binding assay | inhibition, % at 35 µM | AID 2012;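 active means 50% or more with normal probe brightness, or confirmed in later tests; inconclusive means above 50% with abnormal brightness, or retests that disagree; inactive means below 50% or failed in later tests; about a fifth of its hits are not listed in these tables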;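 further: calls also rest on retests at 20 µM and on dose response follow-up; 0% = protein and probe with vehicle and 100% = probe without protein; strong numbers were not always called active; many hits fall short of the cut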
UUG fidelity: modulators of start codon recognition fidelity in yeast; S. cerevisiae UUG-firefly luciferase reporter, luminescence/redox ratio; activity score, % at 18.7 µM; 350,000 tested, 0.13% active; AID 602363;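 active means replicate mean at a twofold rise or more, about +100% in these data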;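 further: firefly luciferase made from a UUG start codon reports start codon fidelity; reporter light over untreated wells divided by growth signal over untreated wells; some hits fall short of that in this replicate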
HIV Env fusion: inhibitors of HIV Env-mediated cell fusion | HeLa-JRFL Env/CEM21 cell fusion, luciferase | inhibition, % at 12.3 µM | 360,000 tested, 1.1% active | AID 651610;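 active means mean replicate inhibition score of at least 50 and every replicate individually at or above 50; inconclusive means only one of the two criteria met; inactive means mean below 50 and not all replicates reaching 50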;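 further: 0% = plate neutral controls and 100% = maraviroc near 300 nM; one replicate is shown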
eIF4H inh retest: second read-out of eIF4H inh, no call of its own (marks repeat the call); inhibition, %; compound at 20 µM; confirmation average;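 mean of two retest wells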
PABP FP inh retest: second read-out of PABP FP inh, no call of its own (marks repeat the call); inhibition, %; compound at 20 µM; confirmation repeats;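 mean of two retest wells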
MT1-MMP act inh RFP: also measured in MT1-MMP act inh; calls as there; RFP signal change, %; measured here: RFP expression control read;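 0 = vehicle wells; hits needed this value within 50% of zero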
The depositor's hits bear a star; i = inactive; u = inconclusive; x = not tested or not shown; & = joins results of further samples. The list is partial; rates above refer to the full screens.

SMILES	Rce1 inh	MT1-MMP act inh	MT1-MMP act inh RFP	PABP FP inh	CSC inhib	eIF4H inh	UUG fidelity	HIV Env fusion	others
COc1ccc(Cc2nnc(SCC(=O)N3CCCC(C)C3)o2)cc1 (centres undefined)	i	-2	-3	0	8	4	x	7
CC(=O)Nc1ccc(S(=O)(=O)Oc2ccc(/C=N/N=C3/NC(=O)C(CC(=O)O)S3)cc2)cc1 (centres undefined)	i	-1	-1	2	-2	4	x	7
COC(=O)C(Cc1c[nH]c2ccccc12)N1CCS(=O)(=O)CC1 (centres undefined)	i	1	2	1	-1	0	-15	19
CSc1ccc(OC2(C)CCN(Cc3ccc(OC(C)C)cc3)C2)cc1 (centres undefined)	x	3	5	x	x	x	0	-3
CC(=O)Nc1ccc(C)c(NS(=O)(=O)c2cccc(C(F)(F)F)c2)c1	i	0	-3	7	11	-13	-8	5
CCCCn1c(O)c(N=NC(=O)c2ccco2)c2ccccc21	i	11	8	0	1	7	x	14
CCOc1ccc(OCCSc2nnnn2-c2ccccc2)cc1	i	2	-8	-5	-14	2	1	-133
COc1ccc(N(C(C)=O)C2C=CS(=O)(=O)C2)c(OC)c1 (centres undefined)	i	0	4	-1	-3	10	-10	x
Cc1ccc(-n2ccc(-c3nn(-c4ccccc4)ccc3=O)n2)cc1	i	-8	-8	-16	-6	-3	x	31
CCc1nc2ccc(C(=O)NCCN3CCNC3=O)cn2c1N(CC)Cc1cccc(Br)c1	x	-4	3	x	x	x	-23	72*
CC1CN(c2nc3ccccn3c(=O)c2/C=C(\C#N)C(N)=O)CC(C)O1 (centres undefined)	i	0	2	-6	-1	4	-20	15
COc1ccc(S(=O)(=O)n2nc(-c3cc(OC)c(OC)c(OC)c3)cc2N)cc1OC	x	7	0	3	1	-10	-20	18
CCCSCCCNC(=O)c1ccc(C)c(NC(=O)C2=C(C)OCCS2)c1	i	3	1	5	x	-9	1	-12
COCCNC(=O)/C(C#N)=C/c1c(N2CCN(c3cccc(Cl)c3)CC2)nc2c(C)cccn2c1=O	i	-4	-4	2	7	-9	-1	-4
CC1(C)CC(=O)C=C(NCCN2CCN(C(=O)Nc3ccccc3)CC2)C1	i	-7	-4	-16	1	-3	-5	-20
COC(=O)c1cn(NC(=O)Cc2ccccc2Br)c(=O)c2ccccc12	i	0	2	-3	0	-11	x	-2
COc1cccc2c1cc1c(=O)n(CC(=O)NCc3ccccn3)nc(C)n12	i	2	4	-8	5	-15	-6	x
CCOC(=O)c1c(C)cc(C)[nH]c1=O	i	-11	-15	2	2	-8	x	1
CCOC(=O)C1C(=O)NC(N2CCOCC2)=NC1c1ccco1 (centres undefined)	i	-1	5	1	x	-8	-9	x
O=C(C1=C(O)C(=O)N(CC2CCCO2)C1c1ccccc1F)c1ccco1 (centres undefined)	i	2	5	4	x	1	-7	12
O=C(c1ccc(=O)[nH]c1)N1CCN(S(=O)(=O)c2ccc3ccccc3c2)CC1	x	2	1	x	-5	x	-16	x
CC(=O)/C(=N\Nc1ccccc1)Oc1ccc(Br)cc1	i	-2	-7	x	0	x	3	-8
COc1ccc(NC(=O)CN2CCCCC2)c([N+](=O)[O-])c1	i	-3	-3	-3	-3	11	-8	x
CC(NC(=O)c1cc2cc(F)ccc2[nH]1)c1ccccc1 (centres undefined)	i	-1	-9	6	x	-2	-16	-19
CN(Cc1cnn(-c2ccccc2)c1)C(=O)c1cccc(S(=O)(=O)N(C)c2ccccc2)c1	x	-1	-20	x	x	x	33	13
O=C(Cn1c(=O)c2sccc2n(Cc2ccc([N+](=O)[O-])cc2)c1=O)NCCc1ccccc1	i	-2	-8	2	-7	-1	x	64
O=C(NCC1CCCO1)c1ccc(Cl)c(NS(=O)(=O)c2ccc(F)cc2)c1 (centres undefined)	x	0	2	x	x	x	-15	30
O=C(Nc1ccc2c(c1)OCCO2)C1CCN(S(=O)(=O)c2ccc3c(c2)OCCO3)CC1	i	3	-5	-6	-7	-10	-11	6
O=C(NCc1cccs1)c1nn2cccnc2c1Cl	i	4	6	-1	-21	9	-22	x
O=C(Cc1ncon1)Nc1ccc(F)c(F)c1F	i	-4	-1	7	13	5	x	0
Cn1cc(S(=O)(=O)NCCc2ccccc2)c(=O)n(C)c1=O	i	0	3	9	-11	-11	-5	-3
CC1(C)CC(=O)C=C(c2ccc(F)nc2)C1	x	-7	2	x	1	x	-18	-10
Cc1ccc(NS(=O)(=O)c2cn(C)c(=O)n(C)c2=O)c(C)c1	i	2	4	-7	-13	-3	6	-20
COCCNC(=O)C(OC(=O)c1cc2oc(C)cc2n1C)C(C)C (centres undefined)	i	5	2	5	-9	-5	-13	-6
CCOC(=O)Cc1csc(NC(=O)c2sc3nc4c(C)cc(C)cc4cc3c2N)n1	i	-99	0	-2	12	5	-15	x
c1ccc2c(-c3cnc4cccnn34)cncc2c1	x	-8	-4	x	x	x	-12	u
O=C(NCCNc1ccc([N+](=O)[O-])cc1)c1ccccc1Br	x	5	0	0	-27	8	x	1
CC1CC(=O)c2cnc(N3CCOCC3)nc2C1 (centres undefined)	i	5	3	73	2	2	-3	3	eIF4H inh retest=36;PABP FP inh retest=23
CCN(CC(=O)NCc1cccs1)S(=O)(=O)c1cccc(Br)c1	x	1	-1	x	-11	x	-22	x
Cc1cccc(-c2ccc(NC(=O)C3CCN(CC4CC4)CC3)cc2)c1	i	0	2	7	33	-2	1	4
O=C(Oc1ccc(N(Cc2cccs2)C2=NS(=O)(=O)c3ccccc32)cc1)c1ccco1	i	0	-3	4	-14	-6	-21	x
CN(C)c1ccc(NS(=O)(=O)c2ccc(Cl)cc2)cc1	i	4	5	32	-6	-9	x	0
COc1ccc(C2CC(c3c(-c4ccccc4)c4cc(Cl)ccc4[nH]c3=O)=NN2S(C)(=O)=O)cc1OC (centres undefined)	i	-19	-17	6	-7	0	11	x
CC(=O)Nc1ccc(NC(=O)COC(=O)c2cc([N+](=O)[O-])ccc2N2CCOCC2)cc1	i	-2	2	4	-1	0	0	11
O=C(CN1CCCCC1)NN(Cc1ccccc1)c1ccccc1	x	8	2	11	-17	2	x	-5
Cc1nnc(SCC(=O)NC(=O)NC(C)C)s1	i	-4	1	4	x	7	-11	-14
CC(NC(=O)COC(=O)CCC(=O)c1ccc(F)cc1)c1ccccc1 (centres undefined)	x	2	0	x	-4	x	-1	-3
Cc1nc(C)c(-c2csc(NCCc3ccccc3)n2)s1	i	-14	-29	12	x	-7	-16	23
Cc1cccc(C(C)C)c1NC(=O)c1c(-c2ccccc2)noc1C	i	-3	1	-18	-2	-19	-13	5
O=C1CC(N2CCN(Cc3ccc(Cl)cc3)CC2)C(=O)N1CCc1ccccc1 (centres undefined)	i	1	-12	-6	14	6	-1	4
O=C(CCNC(=O)c1ccc([N+](=O)[O-])cc1)NCCc1ccccc1	x	-1	2	13	-7	-6	-21	-7
CCOCCCN(Cc1ccco1)S(=O)(=O)c1csc(C(N)=O)c1	i	-4	-1	3	-3	-2	x	7
Nn1c(SCC(=O)N2CCCC2=O)nnc1-c1cccs1	i	0	-2	x	-7	x	x	6
Cc1ccccc1Nc1nnc(SCC(=O)c2c(N)n(C)c(=O)n(C)c2=O)s1	i	2	2	-7	3	-8	x	2
O=C(Nc1ccccc1C(F)(F)F)N1CCCC(O)C1 (centres undefined)	i	0	-1	7	-3	0	-6	x
Cc1ccc(NC(=O)C(=O)NCCc2c[nH]c3ccccc23)c(C)c1	i	6	2	0	29	-3	x	11
COc1cc([N+](=O)[O-])ccc1NC(=S)Nn1cnnc1	i	-6	-3	-16	-2	-9	-27	0
C=CCC[C@@H](Cc1ccc(F)cc1)C(=O)OC[C@@H](Cc1ccccc1)NC(=O)[C@@H](CC=C)CC(=O)N[C@@H](CO)Cc1ccccc1	x	-14	-13	x	x	x	-15	-5
CC12CCC(C(=O)N3CCCc4ccccc43)(CC1=O)C2(C)C (centres undefined)	i	-5	-2	-10	-22	-2	x	-19
COc1ccc2c(COC(=O)c3n[nH]c4ccccc34)cc(=O)oc2c1	i	1	-3	8	0	4	-16	x

Continued:
SMILES	Rce1 inh	MT1-MMP act inh	MT1-MMP act inh RFP	PABP FP inh	CSC inhib	eIF4H inh	UUG fidelity	HIV Env fusion	others
Cc1ccc(C)n1-c1ccncc1	i	-4	1	-3	-2	5	-13	x
CNC(=O)c1ccc(NC(=O)CCNC(=O)Nc2ccccc2)cc1	x	4	2	x	x	x	-7	9
CCCCN1C2CCCC1CC(NC(=O)c1cccc(Cl)c1)C2 (centres undefined)	i	10	3	-1	-1	-1	-22	-9
FC(F)(F)c1ccc(-c2nc3ccccc3s2)cc1	x	3	1	x	x	x	-9	-168
COc1ccc(NC(=O)C2CCN(S(=O)(=O)c3cn(C)nc3C)CC2)cc1	i	2	3	-4	2	-8	-6	-14
Cc1c(C(=O)Nc2ccc(S(=O)(=O)N(C)C3CCN(C)CC3)cc2)oc2ccccc12	x	2	0	x	1	x	-13	-3
CSc1nsc(SCC(=O)Nc2ccccn2)n1	i	3	-1	-2	3	-10	-17	-44
CC1CCCCN1S(=O)(=O)c1ccc(-n2cnnn2)cc1 (centres undefined)	i	3	4	4	-1	-3	x	-5
CSc1ccccc1NC(=O)CSc1nnc(CNC(=O)c2ccccc2F)n1C	i	-1	1	-2	x	-11	15	19
CCOC(=O)c1c(C)nc2c(c1-c1ccccc1)C(=O)CCC2	i	5	2	1	x	1	-18	x
COc1cc2c(cc1OC)C(c1ccc(Br)cc1)N(C(=O)c1ccccc1C(=O)O)CC2 (centres undefined)	i	-4	5	4	-3	-10	13	-10
CCc1nnc(N/N=C/c2cccs2)n1N	i	4	8	1	-14	1	0	-10
CCn1c(CNC(=O)COc2ccc(C(C)C)cc2)nnc1SCC(=O)Nc1ccccc1C(C)C	i	-1	-15	4	5	-1	-14	x
CCOC(=O)c1c(NC(=O)c2cc(C)on2)c2cc([N+](=O)[O-])ccc2n1C	i	x	x	-1	14	-8	x	x
CC(NC(=O)COC(=O)c1cc(Cl)ccc1O)C1CC2CCC1C2 (centres undefined)	x	6	-8	x	-23	x	-3	x
CCOC(=O)C1CCCN(C(=O)Cn2sc3nc(C)cc(C)c3c2=O)C1 (centres undefined)	i	-2	1	3	7	-4	-18	x
CCOC(=O)CSc1nnc(CNC(=O)c2cccc(C)c2)n1-c1ccccc1OC	i	-1	3	-6	-16	-13	-6	x
COc1ccc(-c2ccc3c(c2)O[C@@H](CN(C)C(=O)c2ccccc2F)[C@@H](C)CN([C@@H](C)CO)S3(=O)=O)cc1	x	-2	-1	x	x	x	12&4&13	17
O=c1oc2ccccc2c2c1nc(C(F)(F)F)n2-c1ccccc1	i	4	6	2	-19	-12	-12	x
COc1ccc(Cn2cc(C(=O)c3ccccc3)c(=O)c3cc(OC)ccc32)cc1	i	-1	2	-2	11	-4	-9	13
Cc1ccc(S(=O)(=O)N2CCN(C(=O)CCC(=O)NC3CCCc4ccccc43)CC2)cc1 (centres undefined)	x	2	9	-6	-5	2	12	13
Cc1cc(C)n2nc(C(=O)N/N=C/c3cccc(Cl)c3)nc2n1	i	-4	1	-9	11	-7	x	22
C=CCn1c(N2C(=O)CC(Cc3ccccc3)C2=O)nc2ccccc21 (centres undefined)	i	6	3	2	3	6	-5	-60
